Source: PubChem
MgrA DNA FP: alters Staphylococcus aureus MgrA binding to DNA; fluorescence polarization; inhibition, %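 (about 10 µg/mL by stock and volumes)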; 84,000 tested, 0.13% active;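 active means above 50% in either of two replicates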;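 further: 0% = protein plus DNA without compound and 100% = DNA alone without protein; higher means less MgrA bound to DNA so lower polarization; one replicate is shown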
S aureus helic: blocks Staphylococcus aureus DNA helicase; inhibition, %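 (tested at about 80 µM)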; purified S. aureus helicase, fluorescence unwinding assay; about half of the hits fall short of the stated cut; 120,000 tested, 0.05% active;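 active means both duplicates at 50% or more, or one of them with a favoured structure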;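 further: 0% = mean of negative control wells and 100% = mean of positive control wells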
Starred values were filed as active, the others as inactive; · = not tested or not shown. These rows are one share of the data; the hit share may differ from the screen's.

Every second line gives: MgrA DNA FP | S aureus helic
- CC(C)n1c2ccc(Cl)cc2c2nc3ccccc3nc21
    0.5 | 4
- O=C1c2nc3cc(-c4ccco4)[nH]n3c(=O)c2CN1C1CCCCC1
    · | -7
- CC1=CCC2C(=O)N(C(CC(C)C)C(=O)O)C(=O)C2C1 (stereo unspecified)
    2.3 | 4
- O=C(CC1Oc2ccccc2NC1=O)Nc1ccccc1Br (stereo unspecified)
    · | 9
- CC1=NOC(c2ccccc2O)N(C)C1(C)C (stereo unspecified)
    · | 19
- CC1(C)CC(=O)C=C(SCc2c(Cl)cccc2Cl)S1
    2.8 | ·
- CC(CCC(=O)O)C1CC[C@H]2C3CCC4CC(=O)CCC4(C)[C@H]3CC(=O)C12C (stereo partly specified)
    1.5 | 8
- O=C1Nc2ncccc2OC1CCO (stereo unspecified)
    -0.8 | ·
- COC(=O)c1ccccc1NC(=O)C1CC(c2cccc(Br)c2)=NO1 (stereo unspecified)
    -0.8 | -1
- CCOC(=O)N1CCCN=C1NNc1cc(F)ccc1C
    0.5 | ·
- CCCn1c(C)cc(/C=C(\C#N)C(=O)OCc2nc3ccccc3s2)c1C
    · | 10
- Cc1ccc(S(=O)(=O)NCc2ccc(C(=O)N3CCN(c4ccccc4)CC3)cc2)cc1
    1.0 | 3
- O=C(c1nc2ncccn2n1)N1CCN(c2ccccc2)CC1
    -0.2 | -1
- CC(C)c1ccc(S(=O)(=O)Nc2ccc(O)c(Cl)c2)cc1
    · | 19
- CCCc1cc(=O)n2[nH]c(NCc3ccccc3)nc2n1
    · | -22
- O=C(CCC1CCCCC1)NCCCN1CCOCC1
    1.4 | 1
- N#CCSc1ccccc1NC(=O)COc1ccc(-c2nnco2)cc1
    · | -153
- O=C1CC(c2ccc(S(=O)(=O)NC3CC3)cc2)CN1 (stereo unspecified)
    -1.6 | 14
- COC(=O)C1=C(Nc2cccc(-c3nn(C)cc3Br)c2)CSC1
    0.4 | ·
- O=C(O)Cc1cn(Cc2ccc(F)cc2)c2ccccc12
    1.0 | ·
- Cn1c(-c2ccc(C(=O)c3ccccc3)s2)nc2ccccc21
    3.5 | 2
- CC1CC(OCC(O)CN2CCN(c3cccc(Cl)c3)CC2)CC(C)(C)C1 (stereo unspecified)
    · | -4
- Cc1ccc(C(OCC(C)(C)C[N+](C)(C)C)c2ccccc2)cc1 (stereo unspecified)
    0.3 | 10
- CCOc1ccccc1CN1CCC(CNC(=O)c2cc(=O)[nH]c3ccc(S(=O)(=O)N4CCCCC4)cc23)CC1
    · | 8
- Nn1c(SCc2cccnc2)nncc1=O
    · | -6
- COc1cc(Br)cc(CO)c1O
    1.7 | ·
- O=C1c2ccccc2C(=O)N1SC1CCCCC1
    · | 29
- O=C(CSc1ncnc2c1oc1ccccc12)c1ccccc1
    · | 11
- CCOC(=O)c1c(-c2ccc(OC)cc2)noc1C
    · | 29
- CC1CN(C(=O)COC(=O)c2ccc(C(=O)c3ccccc3)cc2)CC(C)O1 (stereo unspecified)
    · | -3
- Oc1cccc2c(NC(=S)NC3CC3)cccc12
    · | -7
- C#Cc1cccc(-n2nnc(-c3ccccc3)c2C)c1
    · | -42
- Cc1nn(CC(=O)NCCCN2CCOCC2)c(=O)c2c1sc1ccccc12
    · | 5
- CC(C)CC1CC(=O)NC(N)=N1 (stereo unspecified)
    0.1 | -8
- COc1cccc(-c2nc3ccccc3c(=O)n2NC(=O)c2cc(Br)ccc2Cl)c1
    -0.3 | ·
- CC(C)NC(=O)c1cc2c(s1)CCC2
    -1.6 | 0
- O=C(/C=C/c1ccco1)N1CCc2ccccc2C1
    · | 5
- NS(=O)(=O)c1ccc(CCNc2cc(=O)n(Cc3ccc(F)cc3)c(=O)[nH]2)cc1
    · | 3
- CCCCC(C(=O)O)N1C(=O)c2ccccc2C1=O (stereo unspecified)
    -2.5 | 5
- Cc1cccc(NCC(O)Cn2nnnc2-c2ccccc2)c1 (stereo unspecified)
    · | -23
- CCOc1ccc(NC(=O)c2oc3ccccc3c2NC(=O)c2cccs2)cc1
    · | 4
- O=C(OCC(=O)N1CCc2ccccc21)c1n[nH]c2ccccc12
    1.0 | 10
- Cc1cn(CC(=O)c2ccccc2)c2ccccc12
    -0.4 | ·
- O=C(c1ccc(N2C(=O)CCC2=O)cc1)N1CCc2ccccc21
    · | -3
- Cc1ccccc1NCCC(=O)NCc1ccccc1F
    · | -4
- Cn1c(CSCCOc2ccccc2)n[nH]c1=S
    · | 5
- CCC(C)(C)C1CCC(=NNc2ccccn2)CC1 (stereo unspecified)
    · | -11
- CCc1nnsc1C(=O)Nc1ccc(S(=O)(=O)N2CCOCC2)cc1
    · | -9
- O=C(Nc1ccccc1)ON=C1CC2CCCC(C1)N2Cc1ccccc1
    -0.4 | ·
- Cn1c(C(=O)NCc2ccccc2)cc2sccc21
    · | -5
- CC(C)N1CCC2(CC1)N=C(c1ccc3c(c1)OCO3)CC(c1cc(Cl)ccc1O)N2 (stereo unspecified)
    · | 23
- O=C(COC(=O)c1ccc2ccccc2n1)Nc1cc(C(F)(F)F)ccc1N1CCOCC1
    · | -28
- CC(OC(=O)CCc1nc2ccccc2[nH]c1=O)C(=O)c1ccccc1 (stereo unspecified)
    -0.5 | 1
- Cc1cc(=O)oc2cc(OCC(=O)NCC3CCCCC3)c(Cl)cc12
    -2.2 | 4
- N#Cc1ccccc1N1C(=O)c2ccccc2S1(=O)=O
    · | 12
- CCOC(=O)c1cnc2cc(-c3ccco3)[nH]n2c1=O
    · | -10
- CC1C(=N)N(c2nc(N(C)C)nc(N(C)C)n2)CC1=O (stereo unspecified)
    -0.4 | 21
- O=c1c2cc(-c3ccccc3)sc2ncn1-n1cccc1
    0.5 | 22
- COc1nc(N2CCOCC2)nc(N2CCN(c3ccc(F)cc3)CC2)n1
    -3.2 | -2
- CC(C)n1c(CNC(=O)c2ccccc2)nc2ccccc21
    1.4 | 4

(next part)
Every second line gives: MgrA DNA FP | S aureus helic
- Cc1cccc(NC(=O)CSc2ccccn2)c1
    1.0 | -6
- CN(C)S(=O)(=O)c1ccc(NC(=O)COC(=O)C2CC3CCCC(C2)C3=O)cc1 (stereo unspecified)
    · | 1
- CCN(CC)S(=O)(=O)c1ccc2c(c1)nc(CCC(=O)OCc1ccc(C(=O)OC)o1)n2C
    · | -9
- CN(C)CCOC(=O)c1ccc(N2Cc3ccccc3C2=N)cc1
    · | 14
- Cc1ccc(Cn2c(=O)n(Cc3ccccc3)c(=O)c3ccccc32)cc1
    2.0 | 4
- CC1=NN(c2ccccc2)C(=O)/C1=C/c1cc(C)n(C2CC2)c1C
    · | -14
- O=C(O)c1ccc2c(c1)ncn2-c1ccc(Br)cc1
    · | 13
- COCCn1c(SCC(=O)N2CCOCC2)nc2c(c1=O)SC(C)C2 (stereo unspecified)
    -0.1 | 7
- O=c1cc(CSc2nnnn2C2CC2)nc2sccn12
    · | 11
- CCOC(=O)c1oc2ccc(OC)cc2c1CN1CCN(C)CC1
    -0.9 | -11
- CCOC(=O)N1CCC(NC(=O)C2CCN(c3nnc(-n4cccc4CNc4ccc(OCC)cc4)s3)CC2)CC1
    · | -14
- Cc1ccc2c(c1)c1c(n2CC(O)CNC(C)(C)C)CCCC1 (stereo unspecified)
    · | 2
- Cc1[nH]c2ccccc2c1C(C#N)(C#N)C1C(=O)c2ccccc2C1=O
    -3.4 | -416
- COC(=O)C(C)Oc1cc2oc(=O)c3c(c2cc1Cl)CCCC3 (stereo unspecified)
    · | -4
- O=C(c1csc2c1CCCC2)N1CCCCCCC1
    -2.2 | 8
- CC(NC(=O)c1ccco1)C(c1cccs1)N1CCN(C)CC1 (stereo unspecified)
    · | -2
- O=C1O[C@H]2C[C@@H]3C[C@H]2[C@H]1[C@@H]3C(=O)N(Cc1ccccc1)Cc1ccccc1
    -0.4 | 4
- O=C1N=c2ccccc2=C1c1sc(Nc2cccc(C(F)(F)F)c2)nc1O
    2.7 | -4
- Cc1cc(-n2c(C)ccc2C)no1
    -0.4 | ·
- CCN(CC)C(=O)Cn1c(C)c(/C=C/C2=CCN(C)CC2)c2ccccc21
    1.4 | -36
- CCOc1ccc(OCCCC(=O)Nc2nc3ccccc3[nH]2)cc1
    · | 0
- COc1ccc(/C=C(\C#N)c2cccc(Cl)c2)cc1
    -3.0 | ·
- Cc1nn(-c2ccccc2)nc1C(=O)NN
    -0.9 | ·
- Cc1cc(=O)n(C(C)(C)C)c(=O)n1Cc1ccccc1
    3.8 | 2
- O=C(O)c1ccccc1C(=O)NCc1nc(-c2ccc(C(F)(F)F)cc2)no1
    · | -14
- COc1ccc(S(=O)(=O)Nc2cncc(C(=O)Nc3ccc(C(F)(F)F)cc3)c2)cc1
    0.8 | 2
- O=C(O)C1CCC(CNCc2ccccc2Cl)CC1 (stereo unspecified)
    · | 8
- CCN=C1SC(CC(=O)Nc2ccc(N3CCOCC3)cc2)C(=O)N1CC (stereo unspecified)
    -2.5 | ·
- Cc1cccc(CSc2nncn2C)c1
    2.3 | -9
- Cc1cc(C)c2cccnc2c1O
    · | 21
- C/C(=N\OC(=O)c1ccc(C(F)(F)F)cc1)c1cc[nH]c1
    · | 13
- COC(=O)c1cc(N2C(=O)C3C4C=CC(CC4)C3C2=O)ccc1Cl (stereo unspecified)
    -0.6 | ·
- Cc1ccc(N2C(=O)CC(N3CCSCC3)C2=O)c(C)c1 (stereo unspecified)
    -0.9 | ·
- Cc1ccc(C)n1-c1cccc2cccnc12
    9.2 | -4
- CC(=O)N1CCN(S(=O)(=O)c2cccc(C(=O)NC3CCCCCC3)c2)CC1
    · | 1
- COc1cc(C)nc(SCC(N)=O)n1
    -1.2 | -1
- Cc1ccc(C)c(OCc2nc3ccccc3n2C(C)C)c1
    2.2 | 8
- CC1(C)Cc2c(c(N3CCOCC3)nc3oc(C(=O)c4ccccc4)c(N)c23)CO1
    -0.8 | 4
- N#CCSc1ncnc2cc(-c3ccc(Cl)cc3)sc12
    · | -40
- N#Cc1ccc(CSc2ncccn2)cc1
    -4.9 | -6
- O=C(Cn1cnc2ccccc21)N1CCc2ccccc21
    -2.2 | 9
- CCCn1c(N)c(C(=O)CSc2ccc(S(=O)(=O)N3CCN(C)CC3)cn2)c(=O)[nH]c1=O
    · | 6
- COc1ccc(C(=O)NC2=Nc3ccccc3N=C(C)C2c2ccccc2)cc1 (stereo unspecified)
    1.1 | 9
- S=C(NCc1ccco1)NNC(=S)Nc1ccc(Cl)cc1
    -0.4 | -4
- CN(C)C(=O)CN1CCN(Cc2nc3c(Br)cc(Br)cc3c(=O)[nH]2)CC1
    · | -2
- O=C(Cc1c(F)cccc1Cl)NC(=O)Nc1ccc(F)c(Cl)c1
    -2.5 | ·
- Cc1nc2ccccc2n1-c1ccc(S(N)(=O)=O)cc1
    1.3 | -13
- COC(=O)c1cc2sc(Cl)cc2n1CC(=O)Nc1ccc(C)cc1C
    · | 14
- CCCCn1c(COc2ccccc2C#N)nc2cc(S(N)(=O)=O)ccc21
    · | -25
- Nc1ccccc1SC1=CS(=O)(=O)c2ccccc21
    1.4 | 1
- CCc1ccccc1Nc1cc(C(=O)NCc2ccco2)c2ccccc2n1
    · | -30
- O=C(O)CCC(=O)N1CCN(c2nc(-c3ccccc3Cl)c3cc(Br)ccc3n2)CC1
    · | -31
- CC(C)Oc1ccc(CNC(=O)Oc2ccccc2)cc1
    1.1 | 1
- CCCn1nnnc1COC(=O)CSc1cc(C)c2ccccc2n1
    · | -1
- COc1ccc(NC(=O)C2CCCCN2N)cc1OCC(C)C (stereo unspecified)
    -2.2 | 7
- CC(C)N(C(=O)CSc1cccc[n+]1[O-])c1ccccc1
    · | 2
- Cc1cc(N2CCCC2)n2c(nc3ccccc32)c1C#N
    1.2 | 8
- O=C(O)CNS(=O)(=O)c1ccc(Cl)c(Cl)c1
    · | 6
- CCc1ccc(NC(=O)CCc2ccc(C)o2)cc1
    -3.1 | 11
- COc1ccc(CNC(=O)C(NS(=O)(=O)c2cccc3nsnc23)C(C)C)cc1 (stereo unspecified)
    · | 23

Reformatted: results already given.
canonical_smiles | MgrA DNA FP | S aureus helic
CC(C)Oc1ccc(CNC(=O)Oc2ccccc2)cc1 | 1.1 | 1
CCCn1nnnc1COC(=O)CSc1cc(C)c2ccccc2n1 | · | -1
COc1ccc(NC(=O)C2CCCCN2N)cc1OCC(C)C (stereo unspecified) | -2.2 | 7
CC(C)N(C(=O)CSc1cccc[n+]1[O-])c1ccccc1 | · | 2
Cc1cc(N2CCCC2)n2c(nc3ccccc32)c1C#N | 1.2 | 8
O=C(O)CNS(=O)(=O)c1ccc(Cl)c(Cl)c1 | · | 6

(next part)
Every second line gives: MgrA DNA FP | S aureus helic
- O=C(O)c1occc1-c1ccccc1
    · | 10
- C=CCC1c2cccc(C(=O)O)c2C(=O)N1c1cccc(OC)c1 (stereo unspecified)
    0.7 | 1
- NC(=S)COc1ccc(F)cc1
    · | 25*
- COc1ccc(N(Cc2cc3ccc(C)cc3[nH]c2=O)C(=O)C(C)C)cc1
    -2.7 | 21
- O=C(NC1CCC(NC(=O)c2ccccc2F)CC1)c1ccccc1 (stereo unspecified)
    -3.5 | -3
- CC(C)(C)C(=O)CSc1nc2[nH]c(=O)[nH]c(=O)c2s1
    -5.0 | 2
- COc1ccc(C2=CC(=O)OC3(CCCCC3)O2)cc1
    0.9 | 6
- O=C(/C=C/c1cccc(Cl)c1)NCc1ccncc1
    0.1 | -2

Exported with the structure last: 4 of the compounds above.
| MgrA DNA FP | S aureus helic | SMILES |
| --- | --- | --- |
| 0.1 | -2 | O=C(/C=C/c1cccc(Cl)c1)NCc1ccncc1 |
| -5.0 | 2 | CC(C)(C)C(=O)CSc1nc2[nH]c(=O)[nH]c(=O)c2s1 |
| · | 25* | NC(=S)COc1ccc(F)cc1 |
| -2.7 | 21 | COc1ccc(N(Cc2cc3ccc(C)cc3[nH]c2=O)C(=O)C(C)C)cc1 |
